Source: PubChem (several laboratories)
Bead autofluor – compound fluorescence in toxin protease inhibitor counterscreen | compound autofluorescence counterscreen, microsphere flow cytometry; hits give high values | fluorescence intensity (concentration not given with the values) | 360,000 tested, 3.1% active;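 active = at least 3 SD above the mean of all compounds, about 16000 in these data; inconclusive = too few beads counted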;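 note: 100 nL of 1 mM stock went into each well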
BJeLR lethal – kills HRASV12-expressing BJeLR cells; BJeLR (HRASV12) viability, CellTiter-Glo ATP luminescence, 48 h; reference of the scale not given here; 300,000 tested, 0.17% active; inhibition, % (no concentration beside the values);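 active = replicate mean above 50%; inconclusive = above 50% but judged a plate artefact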;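 note: 50 nL library stock added to about 25 µL; numbers are from one replicate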
RN4220 kill – kills Staphylococcus aureus RN4220; inhibition, % (concentration not given with the values); S. aureus RN4220 growth, OD600, 16 h; AID 1259311; 330,000 tested, 0.33% active;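 active = z-score of -3 or lower and OD600 up to 0.18 on both plates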;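 note: plate controls were untreated cells for no effect and reference antibiotic for full effect; stock transfer was 100 nL into about 80 µL; one replicate is shown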
Mtb hypoxia rep – Mtb hypoxia fluorescent reporter inhibition; fluorescence inhibition, % (test concentration not listed); M. tuberculosis hypoxia-regulated fluorescent reporter, fluorescence; 300,000 tested, 0.1% active;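 active = 35 to 45% if threefold the growth effect, above 45% if 1.5-fold the growth effect; inactive = the rest, general growth blockers included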;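 note: wells of about 50 µL received 100 nL stock; 0% = vehicle wells and 100% = reference inhibitor wells; whole bacteria with a GFP reporter of the hypoxia response; strong numbers were not always called active; many hits fall short of the cut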
ugtP null kill – compounds lethal to S. aureus RN4220 ugtP deletion mutant | OD600 growth, 16 h; some inactives read as strong as hits | growth inhibition, % (test concentration not listed) | 330,000 tested, 0.54% active | AID 1259309;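 active = z-score under -3 and OD600 up to 0.15 on both plates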;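 note: plate controls were untreated wells for no effect and antibiotic for full effect; wells of about 80 µL received 100 nL stock; the first replicate is given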
PrP UTR inh – suppresses PrP 5' UTR mRNA reporter expression; 340,000 tested, 0.35% active; cell-based PrP 5' UTR mRNA reporter, plate reader; inhibition, % (concentration not given with the values);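 active = every replicate at 50% or more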;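 note: 0 = median of the neutral control wells; tested in H4 reporter cells; numbers are from one replicate; inactives centre near -14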
Mtb hypoxia rep growth – further read-out of Mtb hypoxia rep, marked with its call; growth inhibition, %; measured here: M. tuberculosis growth (absorbance);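 0% = vehicle and 100% = reference antibiotic; read after six days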
* = called active by the depositor; ? = inconclusive; . = no result given. Compounds as they come, and some 4.1% of all compounds hit somewhere here.

SMILES	Bead autofluor	BJeLR lethal	RN4220 kill	Mtb hypoxia rep	Mtb hypoxia rep growth	ugtP null kill	PrP UTR inh
Cc1nn(C)c(C)c1-c1c(C#N)c(N)nc2c1CCCCCC2	4763	4	.	.	.	.	2
CCOc1ccc(-n2nnnc2SCC(=O)NNC(=O)c2ccco2)cc1	4323	0	4.3	2	14	-2	-17
O=C(COc1ccc(S(=O)(=O)NC2CCCC2)cc1)N1CCCCC1	5646	3	-2.9	5	2	1	-14
FC(F)(F)c1ccc(C2NCCc3sccc32)cc1 (stereo unspecified)	2662	-2	8.5	3	10	0	-21
COc1ccc(-c2ccc(SCC(=O)NC3CCCCC3)nn2)cc1OC	2973	-2	4.2	11	-2	8	-1
COCCNC(=S)N(CCCN(C)C)Cc1cc2cc3c(cc2[nH]c1=O)OCCO3	4037	-2	4.1	-1	0	3	-40
Cc1ccc(/C=N/n2cnnc2)s1	?	-3	.	.	.	.	-22
CCCOc1ccc(-c2c(C(=O)NN=Cc3ccncc3)nnn2-c2nonc2N)cc1	.	.	1.9	7	10	-6	.
Cc1cccc(CN2CCN(Cc3cccc(-n4cccn4)c3)CC2CCO)n1 (stereo unspecified)	3753	-3	2.1	-4	6	4	-22
O=C(CCCOc1ccccc1)Nc1ccc(Br)cc1	3143	12	-0.1	.	.	4	-8
CC1=C(C(=O)N2CCCC(C(=O)c3cccc4ccccc34)C2)OCCO1 (stereo unspecified)	3994	6	5.1	12	14	6	-34
CC(=O)c1cccc(NC(=S)NC(=O)C(C)C)c1	6976	-3	3.6	11	4	5	-9
Cc1ccc(-c2nc3c(c(=O)c4ccccc4n3C)c(=O)n2-c2ccccc2)cc1	2457	16	3.4	-1	5	0	-21
O=C(CCCl)N1CCCC2(CCCCC2)C1	4572	0	4.0	.	.	6	-32
CN1CCN(c2cc(N3CCCC3)c([N+](=O)[O-])cc2F)CC1	4028	-21	3.6	.	.	11	-20
C=CCN(CC=C)CC(=O)Nc1ccc(S(N)(=O)=O)cc1	2450	-4	-1.3	.	.	-9	-30
Cc1ccc(N(CC(=O)NCc2cccs2)S(=O)(=O)c2cccs2)cc1	2786	-1	-3.2	.	.	-6	8
O=C(OCc1ccc(Cl)c(Cl)c1)c1ccccn1	14781	7	6.0	17	0	18	-2
COc1ccc(/C=N/NC(=O)c2nc(-c3ccccc3)cc(-c3ccccc3)n2)cc1OC	3398	0	.	.	.	.	-24
COCCCNC(=O)C1CCN(C(=O)Nc2ccc(Cl)cc2)CC1	9659	-4	3.2	10	15	3	-21
COc1ccc(N(CC(=O)N2CCN(c3ccc(Cl)cc3)CC2)S(=O)(=O)c2c(C)noc2C)cc1	5682	4	6.3	7	-1	15	-10
CCCCCNc1nc2ccccc2nc1NS(=O)(=O)c1cccs1	2521	0	41	-2	-7	-6	-13
CCOc1ccccc1-c1cc(-c2ccccc2)nc2c1c(=O)n(C)c(=O)n2C	.	-1	-0.4	-8	1	-9	-20
COc1ccc(NC2c3ccccc3C(=O)N2Cc2ccco2)cc1OC (stereo unspecified)	6291	3	-6.3	9	7	-3	-17
CC1CCN(S(=O)(=O)c2ccc(C(=O)NCc3ccco3)cc2)CC1	4187	-7	2.1	5	12	15	-16

One compound at a time (already shown). Screens in order: Bead autofluor	BJeLR lethal	RN4220 kill	Mtb hypoxia rep	Mtb hypoxia rep growth	ugtP null kill	PrP UTR inh
Results for CC1CCN(S(=O)(=O)c2ccc(C(=O)NCc3ccco3)cc2)CC1 → 4187	-7	2.1	5	12	15	-16
Results for O=C(CCCl)N1CCCC2(CCCCC2)C1 → 4572	0	4.0	.	.	6	-32
Results for COc1ccc(N(CC(=O)N2CCN(c3ccc(Cl)cc3)CC2)S(=O)(=O)c2c(C)noc2C)cc1 → 5682	4	6.3	7	-1	15	-10
Results for Cc1nn(C)c(C)c1-c1c(C#N)c(N)nc2c1CCCCCC2 → 4763	4	.	.	.	.	2
Results for CC(=O)c1cccc(NC(=S)NC(=O)C(C)C)c1 → 6976	-3	3.6	11	4	5	-9

Next part:
SMILES	Bead autofluor	BJeLR lethal	RN4220 kill	Mtb hypoxia rep	Mtb hypoxia rep growth	ugtP null kill	PrP UTR inh
NC(=S)NN=Cc1ccc(Br)o1	.	.	1.0	.	.	3	.
CCOC(=O)c1c(/N=C/C2C(=O)CC(C)(C)CC2=O)sc2c1CCCC2	4667	-4	.	.	.	.	-23
C[C@H](NC(=O)Nc1cccc(C(F)(F)F)c1)C(=O)O	21298*	-1	3.4	1	0	3	-17
OC(COC(c1ccccc1)c1ccccc1)CN1CCN(c2cccc(Cl)c2)CC1 (stereo unspecified)	5505	-12	.	.	.	.	-23
COc1ccc(C(CC(=O)N2CCOCC2)c2c(OC)cc(OC)c3c(-c4ccccc4)cc(=O)oc23)cc1 (stereo unspecified)	3804	2	4.0	4	1	15	-2
CCOC(=O)N1CCN(C(=O)CSc2nnc(COc3ccccc3)o2)CC1	5561	2	-1.5	.	.	2	-31
O=C(NCc1ccccc1)C(c1ccccc1)N(Cc1ccc2c(c1)OCO2)C(=O)Cc1cccs1 (stereo unspecified)	3315	-1	2.4	6	8	-18	-26
Nc1nnnn1N=Cc1ccc(Cl)cc1	.	.	0.1	11	9	15	.
Cc1ccc(S(=O)(=O)N(C)C)cc1NC(=S)NC12CC3CC(CC(C3)C1)C2	2557	-11	-1.5	-3	2	-7	-10
Cc1ccccc1OC(=O)CCC(=O)OCCCC(F)(F)C(F)(F)F	8375	2	2.6	5	-1	9	-7
Cc1ccc(C(C)NC(=S)NC2CCCCC2)c(C)c1 (stereo unspecified)	5892	13	-2.5	-3	6	-6	2
O=C(CCNC(=O)OCc1ccccc1)NC1CCCCC1	2137	12	4.9	15	2	4	-9
COC(=O)C(=O)CC(=NNc1ncnc2ccccc12)c1ccc(Cl)cc1	.	.	0.2	-2	2	-4	.
Cc1ccc2c(Cl)c(C)c(N3CCCCC3)nc2n1	2135	-3	6.3	3	2	10	-13
O=C1NC(c2ccccc2O)Nc2ccccc21 (stereo unspecified)	3217	-7	-1.0	-2	-3	-5	-35
C/C(=N\NC(=O)c1ccc2c(c1)OCCO2)c1ccccc1	3365	23	.	.	.	.	-33
CC(=O)N(C)c1ccc(N=NC2C(=O)N(C(N)=S)N=C2C)cc1 (stereo unspecified)	3799	6	2.3	5	2	9	-58
Cn1ccc(/C=N/N=C2/NC(=O)CS2)n1	3474	-2	.	.	.	.	-11
CC(Oc1ccccc1)c1ccnc2nc(N=CN(C)C)nn12 (stereo unspecified)	.	.	5.9	5	1	9	.
Cc1c(C(=O)OCC(=O)NCc2ccco2)cccc1[N+](=O)[O-]	3736	.	-2.1	-9	8	-4	3
Cc1cc(/C=C2/NC(=O)NC2=O)c(C)n1C	2172	3	3.3	14	-2	4	-9
CCCC(C)C(=O)Nc1cc([N+](=O)[O-])ccc1F (stereo unspecified)	1949	16	6.2	-11	-3	14	-4
COc1ccc(Cl)cc1NC(=O)CN1C(=O)CSC1=O	4443	-4	-1.2	3	14	-1	-20
O=C(c1ccco1)N1CCN(C(=O)c2ccccc2[N+](=O)[O-])CC1	4262	6	1.3	-15	1	-8	-14
CCN(c1ccccc1)S(=O)(=O)c1cc(C(=O)Nc2ccc(Br)cc2)ccc1F	1996	5	-7.6	-2	3	-11	6
(continued)
SMILES	Bead autofluor	BJeLR lethal	RN4220 kill	Mtb hypoxia rep	Mtb hypoxia rep growth	ugtP null kill	PrP UTR inh
C=CCNC(=O)/C(C#N)=C\c1cc(Cl)c(O)c(OCC)c1	10337	-1	8.1	8	2	-4	-7
CCc1ccccc1N(C(=O)c1snc(C(N)=O)c1N)C(C(=O)NCC1CCCO1)c1ccc(N(C)C)cc1 (stereo unspecified)	3644	-12	-0.6	10	14	0	-19
O=C(NCc1nnc(SCc2ccc(F)cc2)n1-c1ccccc1)C12CC3CC(CC(C3)C1)C2	1981	4	3.5	6	4	-6	-6
Cc1ccc(CN2C(=O)CCC2C(=O)N2CCN(c3ccc(F)cc3)CC2)cc1 (stereo unspecified)	3197	-6	-15	8	9	-3	-34
COc1ccc(NC(=O)Cn2nnc(C(=O)Nc3ccc(F)c(Cl)c3)c2N)cc1OC	4361	-5	5.9	-2	-9	0	-1
Cc1ccc(C)c(NC(=O)CSc2nnc(CCCCCNC(=O)OC(C)(C)C)o2)c1	26977*	-6	4.3	10	10	6	-12
CN(Cc1ccccc1)C(=O)CN(c1ccc(F)cc1)S(=O)(=O)c1ccc2c(c1)OCCO2	3646	-8	14	.	.	0	-15
CCCC(=O)NCCCc1nc2ccccc2n1C(C)C	6040	-9	-1.0	-3	-2	-2	-2
O=C(Nc1ccccc1Cl)N1CCN(c2ccc3nnc(-c4ccccc4)n3n2)CC1	5894	-3	8.6	5	5	-6	1
CC/C(=N\NC(=O)C(N)=O)c1ccccc1O	2077	-6	.	.	.	.	-3
Cc1ccc(-c2cc(C(=O)N3CCOCC3)c3ccccc3n2)cc1	3840	-2	2.4	.	.	-4	-32
Cc1c(/N=C/c2ccco2)n(Cc2ccccc2)c2ccccc12	6453	6	.	.	.	.	-14
C=C(C)CC(NCCc1ccccc1)c1ccco1 (stereo unspecified)	2188	-14	3.2	-3	-1	11	-23
O=P(c1ccccc1)(c1ccccc1)C1CCCO1 (stereo unspecified)	15826	.	-2.3	-10	0	-5	-8
CCC(=O)c1ccc(OCC(O)CN2CCc3ccccc3C2)cc1 (stereo unspecified)	3429	0	5.9	9	1	5	-22
COc1cccc(-c2csc(N3CCN(C(=S)Nc4ccccc4)CC3)n2)c1	10311	0	2.2	1	-4	-10	-22
COC(=O)[C@@]12CCCCN1[C@H](c1ccc(-c3ccc(OC)cc3)cc1)[C@H]1C(=O)N(C)C(=O)[C@H]12	4066	5	.	.	.	.	-10
COc1ccc(N(CC(=O)Nc2ccc(Cl)cc2)S(=O)(=O)c2c(C)n[nH]c2C)cc1	5741	8	.	.	.	.	0
Cc1c2cnn(CC(=O)O)c(=O)c2c(C)n1Cc1ccccc1	7064	-1	-12	3	-1	2	-14
Cc1[nH]c(=O)[nH]c(=O)c1S(=O)(=O)N1CCCC(C(=O)NCCC2=CCCCC2)C1 (stereo unspecified)	3612	-7	-2.4	4	6	-9	-15
Cc1cccc(NC(=O)CN2CCN(C(=O)c3cncn3-c3ccc(F)cc3)CC2)c1C	4056	.	1.3	20	8	-4	-20
CCOC(=O)c1c(NC(=O)CSc2ncnc3ccccc23)sc(C(C)=O)c1C	2135	.	2.8	-10	17	-10	-7
Cc1ccc(N2C(=O)N(c3ccc(C)cc3)C3CS(=O)(=O)CC32)cc1 (stereo unspecified)	4459	0	5.5	7	2	-2	30
O=C(N=C1SC2CS(=O)(=O)CC2N1c1ccc(F)c(Cl)c1)C1CCCO1 (stereo unspecified)	5050	4	0.5	2	7	0	-40
Cc1[nH]c2ccc(Br)cc2c(=S)c1C/C=C/Cl	4444	9	-4.4	7	0	3	-5
Next part
SMILES	Bead autofluor	BJeLR lethal	RN4220 kill	Mtb hypoxia rep	Mtb hypoxia rep growth	ugtP null kill	PrP UTR inh
CC(C)c1ccc(C=NN2CCN(c3ccccn3)CC2)cc1	.	.	0.8	5	10	5	.
O=S(=O)(C(=CNc1ccccc1)S(=O)(=O)c1ccccc1)c1ccccc1	1888	-5	3.0	10	0	10	-30
Cc1ccc2cc(C=C(C#N)C#N)c(N3CCCCC3)nc2c1	11573	-12	-1.8	-2	8	6	-11
Cc1ccc(N2CCCn3c2cc(C)c(C#N)c3=O)cc1Cl	15477	4	-0.5	5	-1	6	2
Cc1ccnc(SCC(=O)NC2CC2)n1	4315	5	2.1	-9	-7	0	-6
Cc1ccc(S(=O)(=O)N2C(=O)c3cccc4cccc2c34)cc1	4608	-10	-2.4	5	1	-1	-7
O=C(NC(=S)Nc1ccccc1)c1cncc(C#Cc2ccccc2)c1	3855	-6	4.6	6	-2	25	-12
Cn1cccc1C(=S)N1CCOCC1	3281	6	-0.2	.	.	-1	-29
Cc1nnc(NS(=O)(=O)c2ccc(Br)cc2)s1	3902	-10	12	3	6	0	0
COC(=O)[C@H](CCSC)NC(=O)Cn1cnc(C(=O)Nc2ccc(C)c(C)c2)n1	3793	.	3.1	-12	4	-5	-18
Cc1nc2ccc(NC(=O)c3ccc(S(=O)(=O)N4CCOCC4)cc3)cc2s1	3540	4	0.6	.	.	-1	17
O=C(NCCCC(=O)N1CCCCC1)c1ccc(Cl)cc1	?	-3	0.9	4	7	5	-7
CCCCN(C)C(=O)c1cc2cc([N+](=O)[O-])cc(OC)c2oc1=O	3587	0	1.3	8	9	3	-45
